High-throughput results (PubChem)
DUX4 inh: blocks DUX4-driven transcriptional activation | 0.8% of 37,000 active | 293T-iDUX4 ZSCAN4-Gaussia luciferase reporter, 24 h; stronger effect = lower value | AID 1224904 | activity change, negative = inhibition, % (no concentration beside the values);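 active = -10% or lower and over 25 points stronger than a control reporter; inconclusive = -10% or lower with a smaller gap; inactive = above -10%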;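 also: 0% = median of neutral control wells and -100% = median of positive control wells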
DUX4 inh difference: recorded beside DUX4 inh, whose call it bears; Gaussia minus Italica difference, %; measured here: selective DUX4 reporter inhibition;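 worked out from the two reporters; negative = selective loss of the DUX4 reporter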
DUX4 inh control: recorded beside DUX4 inh, whose call it bears; activity change, negative = inhibition, %; measured here: Italica tet-on control reporter;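 0 = neutral control and -100 = positive control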
* hit, by the source's call; ? = inconclusive; · = no result given. An excerpt; rates above refer to the full screens.

1: CN(C)C(=O)C[C@@H]1C[C@H]2c3cc(NC(=O)C4CCOCC4)ccc3O[C@H]2[C@H](CO)O1
2: COCCNC(=O)C[C@@H]1C[C@@H]2c3cc(NC(=O)Nc4ccccc4F)ccc3O[C@@H]2[C@@H](CO)O1
3: CC(C)CN(C[C@@H]1N[C@@H](CO)[C@@H]1c1ccccc1)C(=O)CN(C)C
4: Cc1noc(C)c1NC(=O)N(C)C[C@H]1OCCCC[C@@H](C)Oc2ccc(NC(=O)c3ccncc3)cc2C(=O)N([C@H](C)CO)C[C@H]1C
5: CCCC#Cc1ccc([C@H]2[C@H]3CN(C(=O)c4cccnc4)CC(=O)N3[C@H]2CO)cc1
6: CCC(=O)N1[C@@H]2Cn3c(ccc(-c4ccccc4F)c3=O)[C@H]1[C@@H](C(=O)NC1CCC1)[C@@H]2CO
screen / no.	1	2	3	4	5	6
DUX4 inh	7	5	1	1	8	5
DUX4 inh difference	9	-1	1	0	1	3
DUX4 inh control	-1.7	5.4	0.6	1.0	7.0	2.6

7: C[C@@H]1CN([C@H](C)CO)C(=O)CCCn2cc(nn2)CO[C@@H]1CN(C)S(=O)(=O)c1ccc2c(c1)OCCCO2
8: CS(=O)(=O)Nc1ccc2c(c1)[C@H]1C[C@@H](CC(=O)NCCN3CCCCC3)O[C@H](CO)[C@H]1O2
9: OC[C@H]1[C@@H](c2ccc(-c3ccc(F)cc3)cc2)[C@@H]2CN(CCC(F)(F)F)CCCCN12
10: COc1ccc(-c2ccc([C@@H]3[C@H](C#N)N(C(=O)c4cccnc4)[C@H]3CO)cc2)cc1
11: C[C@@H]1CN([C@H](C)CO)C(=O)CCCn2cc(nn2)CO[C@H]1CN(C)S(=O)(=O)c1ccc(C#N)cc1
12: Cc1noc(C)c1NC(=O)Nc1ccc2c(c1)C(=O)N([C@H](C)CO)C[C@H](C)[C@H](CN(C)C(=O)Nc1cccc3ccccc13)O2
screen / no.	7	8	9	10	11	12
DUX4 inh	0	3	?	-9	4	-4
DUX4 inh difference	4	-1	·	-3	0	-2
DUX4 inh control	-4.0	3.9	·	-6.3	3.9	-2.6

Reformatted as labelled records: part of the list above.
10: COc1ccc(-c2ccc([C@@H]3[C@H](C#N)N(C(=O)c4cccnc4)[C@H]3CO)cc2)cc1
  DUX4 inh = -9; DUX4 inh difference = -3; DUX4 inh control = -6.3

11: C[C@@H]1CN([C@H](C)CO)C(=O)CCCn2cc(nn2)CO[C@H]1CN(C)S(=O)(=O)c1ccc(C#N)cc1
  DUX4 inh = 4; DUX4 inh difference = 0; DUX4 inh control = 3.9

Going on with the list.
13: O=C(C[C@@H]1CC[C@@H]2[C@H](COC[C@H](O)CN2C(=O)c2ccccc2)O1)N1CCc2ccccc2C1
14: C[C@H](CO)N1C[C@H](C)[C@H](CN(C)Cc2ccccc2F)Oc2cc(C3=CCCCC3)ccc2S1(=O)=O
15: O=C1NCCOCn2nncc2CC[C@@H]1Cc1cccc(Cl)c1
16: O=C(O)C[C@H]1C[C@H]2c3cc(NC(=O)c4ccc5c(c4)OCO5)ccc3O[C@H]2[C@@H](CO)O1
17: CCCC(=O)Nc1ccc2c(c1)C(=O)N(C)C[C@@H](OC)[C@@H](C)CN(C(=O)c1ccccn1)[C@@H](C)CO2
18: N#C[C@@H]1[C@@H](c2ccc(-c3ccccc3F)cc2)[C@@H](CO)N1C(=O)C1CCC1
screen / no.	13	14	15	16	17	18
DUX4 inh	1	4	-5	11	5	0
DUX4 inh difference	7	2	-4	11	1	-2
DUX4 inh control	-5.1	2.7	-0.9	0.8	4.0	1.9

19: COc1ccc2c3c(n(C)c2c1)[C@H](CO)N(C(C)=O)CC31CN(Cc2ccccc2OC)C1
20: COCCNC(=O)C[C@@H]1CC[C@@H]2[C@@H](COc3ccc(NC(=O)Nc4cccc(F)c4)cc3C(=O)N2C)O1
21: COCCNC(=O)C[C@H]1CC[C@H]2[C@H](COc3ccc(NS(=O)(=O)c4ccc(Cl)cc4)cc3C(=O)N2C)O1
22: N#C[C@H]1[C@@H](c2ccc(C3=CCCCC3)cc2)[C@H](CO)N1C(=O)c1cccc(F)c1
23: CCN1[C@H](C(=O)NC2CCCC2)[C@@H](CO)[C@@H]2Cn3c(ccc(-c4ccccc4F)c3=O)[C@@H]21
24: O=S(=O)(c1ccc(F)cc1)N1CCCCN2[C@H](C1)[C@@H](c1ccc(-c3cncnc3)cc1)[C@@H]2CO
screen / no.	19	20	21	22	23	24
DUX4 inh	?	-2	1	0	-3	5
DUX4 inh difference	·	2	-3	-3	-1	6
DUX4 inh control	·	-3.7	4.2	2.5	-1.9	-1.5

25: C[C@H]1CN([C@@H](C)CO)C(=O)Cc2cc(NC(=O)Nc3cccc4ccccc34)ccc2O[C@@H]1CN(C)Cc1ccc(C(=O)O)cc1
26: CS(=O)(=O)N1[C@H](CO)[C@@H](c2ccc(C#CC3CCCCC3)cc2)[C@@H]1C#N
27: COCC(=O)Nc1ccc2c(c1)C(=O)N(C)C[C@@H](OC)[C@H](C)CN(Cc1cccc(F)c1)[C@H](C)CO2
28: COc1cccc(C#Cc2ccc([C@H]3[C@@H](CO)N4C(=O)CN(C(=O)c5ccccc5)C[C@H]34)cc2)c1
29: COc1ccc(S(=O)(=O)Nc2ccc3c(c2)[C@H]2C[C@H](CC(=O)NCC4CC4)O[C@H](CO)[C@H]2O3)cc1
30: C/C=C/c1ccc([C@@H]2[C@@H](CO)N(C(C)=O)[C@@H]2CN(CC)C(=O)CN(C)C)cc1
screen / no.	25	26	27	28	29	30
DUX4 inh	-3	-2	-1	?	2	-1
DUX4 inh difference	-1	-2	-4	·	5	-2
DUX4 inh control	-2.6	-0.3	3.0	·	-3.2	1.3

31: COCCNC(=O)C[C@@H]1C[C@H]2c3cc(NC(=O)c4cccnc4)ccc3O[C@H]2[C@@H](CO)O1
32: CCC(=O)N1[C@@H](CO)[C@@H](c2ccccc2)[C@@H]1CN(CC)C(=O)c1ccccc1
33: COc1cccc(CNC(=O)c2cc3c(c(-c4cccc(-c5ccncc5)c4)n2)[C@H](CCO)N([S@@](=O)C(C)(C)C)C3)c1
34: Cc1ccc(-c2ccc([C@H]3[C@@H](CO)N4CCCCN(C(=O)Nc5ccccc5)C[C@@H]34)cc2)cc1
35: CC1C=NC(S(=O)(=O)N2CC[C@@H]3[C@H](CO)N(C)c4ccc(-c5ccccc5)cc4[C@@H]32)=N1 (stereo not given in full)
36: COc1ccc(-c2ccc([C@H]3[C@H](CO)N4C(=O)CN(C(=O)NC(C)C)C[C@@H]34)cc2)cc1
screen / no.	31	32	33	34	35	36
DUX4 inh	3	2	2	3	5	6
DUX4 inh difference	3	-2	-2	-3	-4	1
DUX4 inh control	0.7	3.8	4.7	6.4	9.1	4.6

37: C[C@@H]1CN([C@@H](C)CO)C(=O)c2cc(N(C)C)ccc2O[C@@H](C)CCCCO[C@H]1CN(C)C(=O)Nc1cccc2ccccc12
38: COc1ccc(S(=O)(=O)Nc2ccc3c(c2)[C@@H]2C[C@@H](CC(=O)NCC4CC4)O[C@@H](CO)[C@@H]2O3)cc1
39: N#C[C@H]1[C@@H](c2ccccc2-c2ccc(F)cc2)[C@H](CO)N1C(=O)Cc1ccccc1
40: N#C[C@H]1[C@@H](c2ccc(C#Cc3cccc(F)c3)cc2)[C@H](CO)N1C(=O)C1CC1
41: O=C(C[C@@H]1CC[C@@H]2[C@H](COC[C@H](O)CN2C(=O)c2ccc(F)cc2)O1)NCc1cccc(F)c1
42: CCCNC(=O)N1CC2(CN(S(=O)(=O)c3ccc(OC)cc3)C2)c2c(n(C)c3cc(OC)ccc23)[C@H]1CO
screen / no.	37	38	39	40	41	42
DUX4 inh	0	5	-4	0	11	?
DUX4 inh difference	-2	4	4	0	1	·
DUX4 inh control	2.0	0.7	-7.9	-0.1	10	·

43: CO[C@H]1CN(C)C(=O)c2cc(NC(=O)NC(C)C)ccc2OC[C@@H](C)N(C(=O)C2CCC2)C[C@@H]1C
44: O=C(C[C@H]1C[C@H]2c3cc(NC(=O)c4ccc5c(c4)OCO5)ccc3O[C@H]2[C@@H](CO)O1)NCc1cc(F)ccc1F
45: Cc1noc(C)c1S(=O)(=O)N(C)C[C@@H]1Oc2ccc(NS(=O)(=O)c3cn(C)cn3)cc2CC(=O)N([C@@H](C)CO)C[C@@H]1C
46: CC(=O)NC[C@@H]1[C@H](c2ccccc2)[C@H](CO)N1C(=O)Cc1cccnc1
47: CO[C@@H]1CN(C)C(=O)c2cc(NS(=O)(=O)c3ccccc3F)ccc2OC[C@H](C)NC[C@@H]1C
48: COc1ccc2c3c(n(C)c2c1)[C@H](CO)N(C(=O)c1ccccc1)CC31CN(CC2CC2)C1
screen / no.	43	44	45	46	47	48
DUX4 inh	0	-9	-5	-3	10	?
DUX4 inh difference	-2	-8	-3	0	7	·
DUX4 inh control	1.6	-1.0	-2.7	-3.0	3.4	·

49: O=C(C[C@@H]1CC[C@H](NC(=O)CC2CC2)[C@H](CO)O1)NCC(F)(F)F
50: CN(C)CC#Cc1ccc([C@H]2[C@@H](CO)N(C(=O)C3CCCC3)[C@H]2C#N)cc1
51: C[C@H]1CCCCO[C@H](CN(C)C(=O)Cc2ccccc2)[C@@H](C)CN([C@@H](C)CO)C(=O)c2cc(NC(=O)CCCN(C)C)ccc2O1
52: CN(C)CCCNC(=O)C[C@H]1CC[C@H]2[C@@H](COc3ccc(NC(=O)c4ccccc4F)cc3C(=O)N2C)O1
53: O=C(c1ccc(F)cc1)N1CCCCN2[C@H](CO)[C@H](c3ccc(-c4ccccc4)cc3)[C@H]2C1
54: O=C(NC1CCC1)[C@H]1[C@H](CO)[C@H]2Cn3c(ccc(/C=C/c4ccccc4)c3=O)[C@H]2N1Cc1ccncc1
screen / no.	49	50	51	52	53	54
DUX4 inh	7	0	2	4	?	?
DUX4 inh difference	7	0	2	5	·	·
DUX4 inh control	0.4	0.4	-0.6	-0.4	·	·

Gathered by group: the entries above containing a COOH group
16: O=C(O)C[C@H]1C[C@H]2c3cc(NC(=O)c4ccc5c(c4)OCO5)ccc3O[C@H]2[C@@H](CO)O1
25: C[C@H]1CN([C@@H](C)CO)C(=O)Cc2cc(NC(=O)Nc3cccc4ccccc34)ccc2O[C@@H]1CN(C)Cc1ccc(C(=O)O)cc1
screen / no.	16	25
DUX4 inh	11	-3
DUX4 inh difference	11	-1
DUX4 inh control	0.8	-2.6

The listing continues:
55: COc1ccc(-c2ccc([C@H]3[C@@H](C#N)N(C(=O)C4CCC4)[C@H]3CO)cc2)cc1
56: O=S(=O)(c1ccccc1)N1CC2(C1)[C@H](c1ccccc1)[C@H](CO)N2CC1CC1
57: COc1ccc2c3c(n(C)c2c1)[C@H](CO)N(Cc1ccccc1OC)CC31CCN(CC2CC2)CC1
58: O=C(Nc1cccc(F)c1)N1CCCCN2[C@H](CO)[C@H](c3ccc(C#CC4CC4)cc3)[C@@H]2C1
59: CCC(=O)N1CC[C@@H]2[C@H]1c1cc(C#Cc3ccc(OC)cc3)ccc1N[C@@H]2CO
60: CN(C)CC(=O)N[C@@H]1C=C[C@H](CC(=O)NCCN2CCCCC2)O[C@H]1CO
screen / no.	55	56	57	58	59	60
DUX4 inh	0	-4	-1	-32*	-5	3
DUX4 inh difference	-1	-2	5	-37*	-27	0
DUX4 inh control	1.2	-1.2	-6.1	5.1*	22	3.8

61: O=C(NC1CCCC1)N1CC(=O)N2[C@H](CO)[C@H](c3ccc(C4=CCCCC4)cc3)[C@@H]2C1
62: Cc1cccc(S(=O)(=O)N2CC[C@@H]3[C@@H](CO)Nc4ccc(C#Cc5ccccc5F)cc4[C@@H]32)c1
63: COCC#Cc1ccc2c(c1)O[C@@H](CN(C)C(=O)c1ccccc1)[C@H](C)CN([C@H](C)CO)S2(=O)=O
64: C[C@@H]1CN([C@@H](C)CO)C(=O)c2c(c3ccccc3n2C)-c2ccccc2CO[C@@H]1CN(C)S(=O)(=O)c1ccc(C#N)cc1
65: C[C@@H]1CN([C@H](C)CO)C(=O)c2cc(NC(=O)CCC(F)(F)F)ccc2O[C@@H](C)CCCCO[C@@H]1CN(C)C(=O)NC1CCCCC1
66: O=C(O)C[C@H]1C[C@@H]2c3cc(NC(=O)Nc4ccccc4F)ccc3O[C@@H]2[C@H](CO)O1
screen / no.	61	62	63	64	65	66
DUX4 inh	?	-1	-2	3	1	6
DUX4 inh difference	·	-6	-1	10	3	-1
DUX4 inh control	·	4.6	-0.5	-7.0	-2.6	7.3

67: COc1cccc(S(=O)(=O)N[C@H]2C=C[C@@H](CC(=O)NCc3ccncc3)O[C@@H]2CO)c1
68: CN(C)C(=O)C[C@H]1C[C@H]2c3cc(NS(C)(=O)=O)ccc3O[C@H]2[C@H](CO)O1
69: Cc1ccc(S(=O)(=O)N2C[C@H]3[C@@H](c4ccccc42)[C@@H](CO)N3Cc2cccnc2)cc1
70: CCCNC(=O)N1[C@H](C#N)[C@@H](c2ccccc2-c2ccc(F)cc2)[C@@H]1CO
71: COc1ccc(NC(=O)N2CCCCN3[C@H](C2)[C@@H](c2ccc(C#Cc4ccccn4)cc2)[C@@H]3CO)cc1
72: COc1ccc2c3c(n(C)c2c1)[C@@H](CO)N(Cc1cccc(F)c1)CC31CCN(C(=O)Cc2ccccc2)CC1
73: CO[C@H](CN(C)C(=O)c1ccc2c(c1)OCO2)[C@@H](C)CN([C@@H](C)CO)S(=O)(=O)c1ccccc1
74: O=C(C[C@@H]1CC[C@@H]2[C@H](COC[C@@H](O)CN2C(=O)Nc2cc(Cl)cc(Cl)c2)O1)N1CCOCC1
75: CNC[C@H]1Oc2cc(C#CC(C)(C)O)ccc2S(=O)(=O)N([C@@H](C)CO)C[C@@H]1C
screen / no.	67	68	69	70	71	72	73	74	75
DUX4 inh	-3	-3	2	3	?	?	-2	-2	-1
DUX4 inh difference	1	-5	3	-3	·	·	0	-7	1
DUX4 inh control	-3.6	2.0	-0.9	5.5	·	·	-2.4	5.1	-1.9
